PINK1 modulator – modulators of PINK1 expression | PINK1 immunofluorescence, high-content cytometry, 24 h | Potency, µM (highest dose often 76.6 µM), for inactives: at the top dose activation (PINK1 increase), most hits filed as activators | 410,000 tested, 0.2% active; active = well fitted activation curve with a large enough effect; inconclusive = small, poorly fitted or top-dose-only effect; inactive = flat fitted curve, though single readings scatter; cell line not stated here;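 also: potency is read from the fitted curve at half-maximal effect; % of control where 0% means no effect; nearly all actives have a fitted effect of over 65% in size; a mitochondrial uncoupler was the plate control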
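PINK1 protein level read as immunofluorescence by microplate cytometer in a fixed, stained stable cell line after 24 h exposure to five compound concentrations, with CCCP as control.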
TRPML1 agonist – activates the human TRPML1 channel; TRPML1-expressing cells, Ca2+ dye fluorescence, FDSS; host cell line not named in the record; reference of the full effect not given here; activation, % (concentration not given with the values); AID 624414; 410,000 tested, 0.12% active; in the data active = activation above about 50%; inconclusive = about 30% to 50%; inactive = below about 30%; also: 0% is about no effect; the text of the record puts the active cut at 80%
Target sequence (Q9GZU1 whole entry, looked up): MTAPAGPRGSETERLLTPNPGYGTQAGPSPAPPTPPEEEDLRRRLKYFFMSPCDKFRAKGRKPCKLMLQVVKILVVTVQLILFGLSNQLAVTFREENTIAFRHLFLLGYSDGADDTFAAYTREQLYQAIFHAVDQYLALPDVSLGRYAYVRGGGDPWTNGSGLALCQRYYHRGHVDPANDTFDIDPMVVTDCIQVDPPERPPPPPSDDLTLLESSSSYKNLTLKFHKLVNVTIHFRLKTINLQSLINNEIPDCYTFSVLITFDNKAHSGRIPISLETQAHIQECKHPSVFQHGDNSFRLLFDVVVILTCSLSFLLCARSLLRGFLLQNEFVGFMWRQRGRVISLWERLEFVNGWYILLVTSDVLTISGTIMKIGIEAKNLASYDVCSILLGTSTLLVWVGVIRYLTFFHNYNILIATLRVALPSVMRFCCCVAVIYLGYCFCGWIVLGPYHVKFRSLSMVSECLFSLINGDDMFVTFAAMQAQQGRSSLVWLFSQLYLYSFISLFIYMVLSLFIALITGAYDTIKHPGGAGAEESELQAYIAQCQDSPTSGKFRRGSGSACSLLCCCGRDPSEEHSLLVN
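Calcium fluorescence on an FDSS kinetic reader gave the read-out. Tet-induced TRPML1-DL cells were plated overnight, dye-loaded (Ca8 with quencher, 45-90 min, room temperature, dark), then read 110 s after compound addition, and again 110 s after 4uM final 54-4 (EC80).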
Sfp PPTase inh – blocks B. subtilis Sfp PPTase activity; Q9F4F7; Biochemical Sfp PPTase activity, qHTS; Potency, µM, inactives show max response, negative = inhibition, actives largely listed as inhibitors; 310,000 tested, 3.5% active; active = well fitted inhibition curve with a large enough effect; inconclusive = small, poorly fitted or top-dose-only effect, or another doubt; inactive = no such curve, though single readings can be large or run the other way;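 also: the enzyme is Sfp with the accession as filed and its product quenches rhodamine fluorescence; potency is read from the fitted curve at half-maximal effect; 0% = enzyme reaction without inhibitor and -100% = no enzyme wells; top concentration of the series not given in the record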
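Fluorescence-quenching assay with 15 nM Sfp, 5 uM rhodamine-CoA and 12.5 uM BHQ-2-labelled ybbR peptide in pH 7.6 Hepes/MgCl2 buffer. Enzyme was pre-incubated with compound for 15 min at room temperature. Rate was taken from the 30-min fluorescence change (525/598 nm).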
ClpP mod – qHTS Assay for Activators of ClpP; purified B. subtilis ClpP, FRET peptide cleavage, 20 min; ATP-dependent Clp protease proteolytic subunit (Bacillus subtilis (strain 168)), P80244; Potency, µM (doses to about 57.5 µM), inactives show at the top dose activity change, negative = active; 340,000 tested, 1.9% active; active = well fitted falling curve with a large enough effect; inconclusive = small, poorly fitted or top-dose-only effect; inactive = no such curve, though single readings can be large or run the other way; also: potency is read from the fitted curve at half-maximal effect; the source files actives as falling curves though it sought activators and does not explain the sign; nearly all actives have a fitted effect of over 65% in size; many hits overshoot -100%
Target sequence (P80244 whole entry, looked up): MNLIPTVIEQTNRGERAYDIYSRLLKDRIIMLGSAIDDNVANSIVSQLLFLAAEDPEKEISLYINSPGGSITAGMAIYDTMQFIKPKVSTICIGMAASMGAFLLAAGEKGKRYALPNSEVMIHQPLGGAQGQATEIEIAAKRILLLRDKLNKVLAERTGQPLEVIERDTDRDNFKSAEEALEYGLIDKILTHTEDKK
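FRET quenching reversal measured ClpP activation: 10 microg/mL B. subtilis ClpP at pH 8 with the FRET-FV decapeptide, read at 430 nm after 320 nm excitation. The 20-min minus 0-min signal was scaled between DMSO/no-enzyme wells and ADEP (5.8 microM final).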
Menin MLL FP FL – menin-MLL binding inhibition, fluorescein peptide. FP activity change, % at 61.4 µM. 290,000 tested, under 10 active. Fluorescence polarization, fluorescein-MLL peptide displacement from menin; inconclusive = falling polarisation curve, or a change in total fluorescence; inactive = total fluorescence flat and polarisation flat or rising; no compound was filed as active; the % refers to the polarisation; negative = inhibition;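 also: % of control where 0% means no effect; inhibitors lower the polarisation; unlabelled MLL peptide was the positive control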
TRPML1 blocker – human mucolipin-1 channel inhibition | Q9GZU1 | TRPML1-inducible cells, Ca2+ dye fluorescence, FDSS; hits give low values; inhibition of EC80 agonist-evoked calcium signal | activity change, negative = inhibition, % (no concentration beside the values) | 390,000 tested, 0.02% active; in the data active means activity change below about -50%; inconclusive means about -30% to -50%; inactive means above about -30%;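 also: stimulus is agonist 54-4 at its EC80 concentration; % is scaled to controls: 0 for no effect and ±100 for the full control effect; compound concentration not given in the record; the text of the record puts the active cut at -80%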
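Tet-induced TRPML1-DL cells loaded with Ca8 no-wash calcium dye were read kinetically on FDSS. Compound addition was followed by EC80 agonist 54-4 (4 uM final); inhibition was read over 110 s.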
TRPV1 potentiator – enhances activation of the human vanilloid receptor TRPV1; 320,000 tested, 0.02% active; potentiation, % at 8.33 µM; AID 540277; Q8NER1; TRPV1-expressing cells, Fluo-8 calcium influx, capsaicin EC20 potentiation; host cell line not named in the record; control for the full effect not named in the record; active means potentiation above 80%; inconclusive means 30% to 80%; inactive means below 30%; also: 0% is about no effect
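Fluo-8 calcium influx in TRPV1-expressing cells, kinetic read (ex 480/em 520 nm). Compound added and read 3 min for agonist activity, followed by capsaicin at EC20 final and 2 min further read for enhancement.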
* marks the source's active call; other numbers are inactive results; ? = inconclusive; . = not tested or not shown; [ ] = remark or other dose.

SMILES	PINK1 modulator	TRPML1 agonist	Sfp PPTase inh	ClpP mod	Menin MLL FP FL	TRPML1 blocker	TRPV1 potentiator
Cc1ccc(C(=O)Nc2nc(-c3nnn(-c4cccc(C(F)(F)F)c4)c3C)ns2)cc1	0.5%	-0.3	.	-0.2%	.	-5.7	.
CCN(C(=O)c1cc(S(=O)(=O)N2CCc3ccccc32)cn1C)c1cccc(C)c1	3.8%	0.6	.	0.0%	.	22.3	.
CCOC(=O)C1=C(C)Nc2ncnn2C1c1cccnc1 (centres undefined)	3.7%	-0.1	15.8%	-0.3%	2.8	-18.6	-0.6
COc1ccc2cc(CN(CC3CCCO3)C(=O)Nc3ccccc3)c(=O)[nH]c2c1 (centres undefined)	4.1%	2.1	13.0%	-7.4%	-0.5	-16.9	12.1
O=C(O)CN1C(=O)C(=O)N(Cc2ccc(Cl)c(Cl)c2)C1=O	1.7%	0.6	7.6%	-2.0%	-1.6	1.5	-3.8
COCC(=O)Nc1ccc2c(c1)OCC(=O)N2Cc1ccccc1F	1.5%	-0.4	-0.6%	0.6%	0.7	1.4	3.4
CC1(C)C=C(c2ccc(C(=O)O)s2)CC(C)(C)N1	2.5%	5.6	-5.6%	-2.4%	2.8	0.9	4.9
C=CCn1c(SCC(=O)N2CC(=O)Nc3ccccc32)nc2scc(-c3cccs3)c2c1=O	0.3%	-0.9	-0.7%	-15.2%	9.1	-0.2	1.1
O=C(CSCc1ccc(Cl)cc1Cl)Nc1ccc(O)cc1C(=O)O	-0.8%	2.1	15.1%	-11.6%	-0.3	26.4	-5.6
CC1(C)CC(=O)N(c2ccc(C#N)cc2)C(=O)C1	-0.7%	-0.1	1.1%	1.3%	-7.1	1.1	-2.7
Cc1cccc(CN(CC(=O)N/N=C/c2ccco2)S(=O)(=O)c2ccc(Cl)cc2)c1	24.2%	3.0	3.8%	-1.0%	0.7	79.0	10.8
Cc1cccc(Nc2ncnc3ccc(Br)cc23)c1	0.0%	4.0	-3.6%	.	2.5	-15.7	-5.8
O=C(Cn1cc([N+](=O)[O-])cn1)N1CCc2ccccc2C1	-0.1%	-0.6	13.3%	-1.1%	2.1	24.1	2.6
CSc1sc(-c2ccnc(=S)[nH]2)c(-c2ccccc2)c1C#N	2.4%	0.0	11.0%	.	9.1	-3.0	-16.4
COCCN1C(=O)c2cc(C(=O)Nc3cccc(F)c3)ccc2C1Nc1cccc(F)c1 (centres undefined)	8.6%	-0.4	6.9%	-0.5%	8.2	23.4	-4.1
COCc1cc(C)nc2sc3c(=O)n(-c4cc(C)ccc4C)nnc3c12	1.2%	-0.3	.	1.0%	.	5.5	.
COc1cccc(S(=O)(=O)N(C)C[C@H]2Oc3ncc(Br)cc3C(=O)N([C@@H](C)CO)C[C@@H]2C)c1	1.5%	-0.1	.	-0.1%	.	13.8	.
O=C1/C(=C/c2cccs2)SC(=S)N1CC(=O)N1CCCCC1CCO (centres undefined)	-1.1%	2.4	-10.9%	0.5%	.	-6.7	4.7
CNc1cncc(-c2cccc(O)c2)n1	-1.1%	-1.2	.	5.0%	.	.	.
Cc1cccc(Nc2nc(N)nc(CCl)n2)c1C	-1.0%	1.2	-7.9%	.	-2.3	16.5	28.9
O=C(CN1CCN(Cc2ccc3c(c2)OCO3)CC1)Nc1cc(S(=O)(=O)N2CCCC2)ccc1Cl	1.2%	0.2	3.8%	.	-0.2	-14.6	0.1
COc1ccc(CCNC(=O)c2sc3cc(C)ccc3c2Cl)cc1	4.8%	-0.2	0.9%	?	1.5	-6.6	8.6
Cc1cc(-c2nc3c4c5c(sc4[nH]c(=O)n3n2)CCC5)c(C)o1	-0.7%	-0.5	28.2µM*	-4.4%	15.0	-2.0	-3.3
Cc1ccc([N+](=O)[O-])cc1NC(=S)NC(=O)CC(C)(C)C	7.3%[38.3 µM]	0.0	4.2%	-1.8%	1.1	18.8	-10.0
C/C(=N\NC(N)=O)c1cccc(Cl)c1	-1.9%	0.2	12.3%	0.5%	-9.1	-15.0	?
O=S(=O)(c1cc(Cl)ccc1Cl)N1CCN2CCCC2C1 (centres undefined)	1.5%	-0.3	14.5%	.	-1.5	-2.3	?
O=c1[nH]c2ccccc2nc1NCCN1CCOCC1	0.3%	-0.6	17.5%	31.6µM*	0.5	9.0	-1.7
Cc1ccc(C)c(NS(=O)(=O)c2ccc3c(c2)Cc2cc(S(=O)(=O)Nc4cc(C)ccc4C)ccc2-3)c1	7.9%	0.3	8.3%	-5.9%	8.0	2.0	-2.6
Cc1nn(C)c(C(=O)NNC(=S)Nc2ccc(F)cc2)c1[N+](=O)[O-]	2.4%[38.3 µM]	1.6	20.0%	0.8%	-1.7	8.8	?
CCN(CC)S(=O)(=O)c1ccc(-c2nnc(SCc3nnc(-c4ccc(C)cc4)o3)o2)cc1	8.5%[38.3 µM]	4.2	-1.8%	-0.3%	?	6.5	-13.6
Cc1ccc2c(C(=O)CNc3nccs3)c[nH]c2c1	-0.8%	-0.7	.	0.6%	.	.	.
CCOC(=O)C1=C(C)NC(=O)NC1c1cccc(OC)c1OCc1ccccc1Cl (centres undefined)	29.9%[38.3 µM]	-0.7	21.8%	1.0%	2.0	2.2	9.9
O=C(Nc1ccc2c(c1)OCCO2)C1CCCN(S(=O)(=O)c2cnc[nH]2)C1 (centres undefined)	-0.4%	0.1	22.2%	0.9%	3.7	-11.6	-3.9
Cc1nnc(N2CCN(c3ccccc3)CC2)[nH]c1=O	1.6%	-0.9	15.4%	-0.4%	-0.2	7.4	-2.5
CCN(C(=S)Nc1cccc(C)c1)c1ccccc1	-1.6%	-0.5	-19.5%	-0.9%	0.1	-17.0	11.0
CCOC(=O)C1=CC[C@@H](c2ccccc2)N(S(=O)(=O)c2ccc(C)cc2)[C@H]1c1ccccc1C	0.9%	0.1	.	-3.4%	.	37.1	.
O=C(NCc1cccs1)C1CC(c2ccc(Cl)cc2)=NO1 (centres undefined)	9.2%	0.7	4.4%	.	0.8	-10.5	10.0
CC(NC(=O)c1ccccc1)C(=O)Nc1ccccc1 (centres undefined)	0.1%	0.6	.	1.5%	.	14.2	.
Cc1ccc(-c2csc(NC(=O)CN3C(=O)CCC3=O)n2)cc1	6.6%	1.0	9.3%	1.4%	-3.0	2.8	12.2
CC1Oc2ccc(C#N)cc2N(Cc2ccc(F)cc2)C1=O (centres undefined)	-0.3%	-1.2	.	-0.2%	.	.	.
CC(C)(C)c1ccc(CC(=O)N2CCC2(C)C(=O)NS(=O)(=O)c2ccccc2C(F)(F)F)cc1 (centres undefined)	-0.1%	0.0	.	0.5%	.	.	.
O=C(c1ccccn1)c1ccc2ccccc2n1	3.8%	-0.1	2.1%	.	7.2	-7.4	1.8
Cc1ccc2oc(=O)cc(CN3CC(C)OC(C)C3)c2c1 (centres undefined)	0.7%	0.4	-0.9%	-9.3%	-0.2	-6.8	12.7
CNC(=O)CN(c1cc(OCCOC)c(Cl)cc1Cl)S(=O)(=O)c1ccccc1	3.9%	0.4	1.9%	.	2.2	-7.0	8.3
CCn1ncc(/C=N\NC(=O)c2ccc3c(c2)c(C)c(C)n3Cc2ccccc2)c1C	7.4%	-1.1	-12.9%	?	4.4	2.9	-13.1
CC1CN(CCCSc2ccc(Cl)cc2)CC(C)O1 (centres undefined)	12.9%	2.3	?	.	-1.0	2.9	-9.1
CC(CNC(=O)c1sc2ncccc2c1-n1cccc1)c1ccccc1 (centres undefined)	-0.4%	2.8	.	0.2%	.	74.0	.
C/C(=N\NC(=O)c1cc(C)oc1C)c1ccc(C)c([N+](=O)[O-])c1	9.0%	-0.2	.	0.1%	.	7.7	-5.2
COC(=O)CSc1cc(C)nc(NC(C)=O)n1	0.9%	-0.6	13.4%	-2.0%	-1.5	6.1	5.5
CN(C)c1ccccc1C(=O)N1CCC(n2nccc2NC(=O)C2CC2)CC1	-1.6%	-0.4	8.0%	.	.	8.3	-11.2

(further entries)
SMILES	PINK1 modulator	TRPML1 agonist	Sfp PPTase inh	ClpP mod	Menin MLL FP FL	TRPML1 blocker	TRPV1 potentiator
CC(=O)N1CCC(C(=O)Nc2ccc3c(c2)CCC3)CC1	0.7%	-0.5	2.4%	-0.1%	.	-0.8	-4.8
CNc1ccc(/C=C2\C=Cc3ccccc32)cc1Br	8.2%	-0.3	.	-1.0%	.	.	.
COc1ccc(C(=O)c2nccc3ccccc23)cc1	0.8%	1.6	6.3%	.	-0.2	2.6	4.2
COc1cc(C(=O)OCC(=O)N2CCNC2=O)cc(Cl)c1OC	2.8%	-0.1	.	-0.6%	.	-11.4	5.5
COc1ccc(OC)c(/C=C/C(=O)Nc2cccc(S(=O)(=O)NC3=NCCCCC3)c2)c1	2.5%	-0.4	.	4.4%	.	-2.5	2.1
Cc1cc(NC(=O)CSc2nc(C(C)C)nc3sc4c(c23)CCC(C)C4)no1 (centres undefined)	11.1%	-0.4	9.5%	-0.7%	4.2	5.4	10.9
CC1CN(C(=O)COC(=O)[C@@H](NC(=O)c2ccccc2Cl)C(C)C)CC(C)O1 (some centres undefined)	0.8%	-0.2	.	0.5%	.	11.5	.
CC(C)C(C(=O)Nc1ccccc1F)N1C(=O)c2ccccc2C1=O (centres undefined)	-0.2%	0.8	.	.	.	1.5	.
CC[C@@]12C(=O)N(c3ccccc3)C(=O)N1[C@H](c1cccc(C)c1)[C@@H]1C(=O)N(Cc3ccccc3)C(=O)[C@@H]12	2.1%	0.0	10.7%	1.6%	0.1	6.4	29.9
CCCOc1ccc(C2C(=O)N(C3CCCCCC3)CC(=O)N2CCC)cc1OC (centres undefined)	2.4%	-0.6	.	1.1%	.	-1.6	.
CC1CCCC(NC(=O)CCCn2c(=S)[nH]c3ccccc3c2=O)C1C (centres undefined)	2.0%	1.8	8.9%	.	-0.9	7.4	0.3
CN(C)S(=O)(=O)c1ccc(NC(=O)COc2cccc3c2OC(C)(C)C3)cc1	0.5%	0.0	.	1.2%	.	2.2	?
CC(C)N(C(=O)COC(=O)c1ccc([N+](=O)[O-])cc1)c1ccccc1	0.7%	-0.4	12.9%	0.7%	0.7	15.3	-1.6
CC(C)N=c1c([N+](=O)[O-])nn(C)n1O	0.6%	-0.3	5.9%	-3.0%	-1.8	-7.7	7.3
CN(CC(=O)Nc1ccccc1Cl)C(=O)CSc1nncs1	-2.0%	-0.7	.	-1.9%	.	2.1	5.3
COc1ccccc1/C=C(/C(=O)OCC(=O)NCc1ccccc1)c1ccccc1	0.1%	0.1	1.5%	.	2.7	12.9	-2.9

Source: PubChem BioAssay (National Center for Advancing Translational Sciences (NCATS))
